TAR Tat displ = TAR RNA-Tat peptide displacers, HIV-1, primary screen, biochemical, FRET, FAM/TAMRA-labeled Tat; 100,000 tested, 0.6% active; z-score (no concentration beside the values); HIV-1 TAR RNA, Tat peptide displacement FRET; stronger effect = higher value;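 also: score is relative to mean and SD of negative controls; some compounds called inactive have numbers as strong as hits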
CDC25B-CDK2 inh = primary biochemical HTRF screen for blockers of M-phase inducer phosphatase 2 binding to CDK2/cyclin A; 94,000 tested, 0.72% active; AID 1259370, 2018; P30305+P24941; z-score (concentration not given with the values); HTRF CDC25B-CDK2/CyclinA binding, anti-His/anti-Flag; stronger effect = higher value;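 also: score is relative to mean and SD of negative controls; strong numbers were not always called active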
The depositor's hits bear a star; . = no result given.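 The calls were made as follows: active = z-score from 3 up in half or more of its runs; inactive = the rest.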

Below each SMILES – TAR Tat displ	CDC25B-CDK2 inh
CCCCCCOC(=O)c1[nH]c2c(c1C)C(=O)CC(c1cccs1)C2 (configuration not stated)
→ 1.5	1.9
O=C(NCc1ccco1)c1nnc(-c2ccncc2)o1
→ 1.1	-1
CCOc1ccc(-c2nnc3ccc(SCC)nn23)cc1
→ .	-1.6
C/C(=N\N=C1/NC(=O)CS1)c1ccc(Cl)s1
→ .	-1.6
COc1ccc(CCN(C)CCc2ccc(OC)c(OC)c2)cc1OC
→ .	-0.8
CCN(CC)c1nn2c(=O)c(C(=O)NC3CC3)cnc2s1
→ 0.59	.
O=C(/C=C/c1cccc([N+](=O)[O-])c1)Nc1cc(C(F)(F)F)cc(C(F)(F)F)c1
→ .	-1.5
O=C(NC(Sc1nccc(OC(NC(=O)c2ccccc2)C(Cl)(Cl)Cl)n1)=C(Cl)Cl)c1ccccc1 (configuration not stated)
→ .	0.34
CN(C)CCCNc1cc(N2CCCCC2)c2noc3c2c1C(=O)c1ccccc1-3
→ 1.7	0.05
COc1cc(-c2oc3cc(O)cc(O)c3c(=O)c2O[C@@H]2O[C@H](CO)[C@@H](O)[C@H](O)[C@H]2O)ccc1O
→ 0.39	.
O=S(=O)(c1ccc(Br)cc1)N1CCN(Cc2ccccc2F)CC1
→ .	3.2
CCC(C)NS(=O)(=O)c1ccc2c(c1)NC(=O)CCS2 (configuration not stated)
→ 0.23	.
CCNc1cc(N(C)C)c2noc3c2c1C(=O)c1ccccc1-3
→ -4.2	1.2
Cc1ccc(Cl)cc1OCc1nnc2n1CCCCC2
→ -0.76	.
CN(C(=O)Cc1c(C(=O)O)[nH]c2ccccc12)c1ccccc1
→ .	0.39
CN(C(=O)CSc1cn(CC(=O)N2CCCCC2)c2ccccc12)c1ccccc1
→ 0.07	.
CN(C)n1cccc1/C=C(\C#N)C(=O)c1cccc(C(F)(F)F)c1
→ .	-1.8
Cc1cc(N2CCOCC2)nc(N2CCN(C(=O)Nc3ccc(Cl)cc3)CC2)n1
→ 0.55	.
CSc1cc(-c2ccccn2)nc(C(C)(C)C)c1
→ .	-2.3
CCc1ccc(-c2cc(C)no2)cc1S(=O)(=O)N1CC(C)CSc2ccccc21 (configuration not stated)
→ 2.5	.
CN(C)c1ccc(CNC2CCCCC2)cc1
→ 0.82	-0.27
CS(=O)(=O)N1CCCc2cc(C(=O)NC3CC3)ccc21
→ 1.6	-1.4
Cc1cc2nc3c(c(=O)n2[nH]1)CCCC3
→ .	0.6
CC1CCC(NC(=O)C(Cc2ccccc2)NS(=O)(=O)c2ccc3c(c2)CCC(=O)N3)CC1 (configuration not stated)
→ .	-1.3
CS(=O)(=O)N1CCN(c2cc(-c3ccccc3)ncn2)CC1
→ 0.97	.
Cc1ccc(Cn2c(CO)cnc2SCCc2ccccc2)cc1
→ 1.2	.
Cn1cc(Cl)c(/C=N/OC(=O)Nc2ccc(Cl)cc2)n1
→ .	-1.3
Cc1ccc2nc(Nc3ccc(F)cc3Cl)c3nnnn3c2c1
→ -0.53	.
COCCNC(=O)c1cc(Cl)c(NC(=O)C2=CSCCO2)cc1OC
→ 0.4	.
CCOc1cccc2c1OC1(C)CC2NC(=O)N1c1cccc(Cl)c1 (configuration not stated)
→ .	0.46
O=C(CN1C(=O)COc2ccc(S(=O)(=O)N3CCCC3)cc21)N1CCN(c2ncccn2)CC1
→ .	-0.61
CCN1C(=O)c2cc(C(=O)NCCCN3CCN(C)CC3)nn2CC1(C)C(=O)NC1CCCC1 (configuration not stated)
→ 0.72	.
COc1ccc2c(c1)OC[C@@H](Cc1ccc(OC)c(OC)c1)[C@H]2O
→ 1.2	.
O=C(NC(=O)N1CCOCC1)c1nnc(-c2ccccc2)o1
→ .	-2.2
COc1ccccc1OCc1nc(C#N)c(N(C)C)o1
→ 1.4	2.4
COc1ccc(-c2cc(N)n(S(=O)(=O)c3ccc(F)cc3)n2)cc1OC
→ 1.1	-0.63
Cc1cccc(-c2nc(CSc3nncn4c3cc3occc34)c(C)o2)c1
→ 5.6	.
NC(COCc1ccccc1)C(=O)O (configuration not stated)
→ 1.8	.
CCc1nn(CC(=O)NCc2cccs2)c(=O)c2cc3occc3n12
→ 2.6	-0.66
CN(C)Cc1cc(C(C)(C)C)c(O)c(C(C)(C)C)c1
→ 3.5	-2.4
CCSc1nc2n(n1)C(c1ccccc1F)C1=C(CCCC1=O)N2 (configuration not stated)
→ 0.37	-1.3
O=C(Cn1nc(-c2ccccc2)c2cnc3cc4c(cc3c21)OCCO4)NC1CCCC1
→ -0.04	.
O=C(Nc1ncc(Cc2ccc(F)cc2)s1)c1cc2ccccc2c(=O)s1
→ 1.3	-1.1
Cc1ccc2nc3c(cc(C#N)c(=O)n3Cc3ccccc3)c(=O)n2c1
→ 1.3	-0.93
O=S(=O)(Cc1ccccc1F)c1ccc2c(c1)S(=O)(=O)N=CN2
→ 0.11	.
O=C(Nc1ccccc1Cl)c1cc2c(s1)-c1ccccc1OC2
→ -0.12	-0.3
CC(C)(C)NC(=O)CSc1nnnn1-c1ccc(O)cc1
→ 1.7	0.56
COC(=O)c1c(C)oc2ccc(OC(=O)c3c(C)oc4ccc(OC(C)=O)cc34)cc12
→ 0.17	-3.1
Cc1cc(NC(=O)CSc2nccc(-c3ccc(F)cc3)n2)no1
→ 0.47	-0.12
CO/N=C1\CCCc2c(C(=O)NNC(=O)Nc3ccc(OC(F)(F)F)cc3)sc(SC)c21
→ .	-0.62
O=C(C1CC1)N1CCc2cc(S(=O)(=O)N3CCCC3)ccc21
→ .	-1.9
COc1cc(CN2CCN(Cc3ccc4c(c3)OCO4)CC2)cc(OC)c1
→ -1.1	0.39
Cc1cc(O)cc(C)c1NS(=O)(=O)c1ccccc1
→ -1.1	-0.92
CCCSC1=NS(=O)(=O)c2ccccc2N1CCC
→ 1.1	.
COc1ccc(N2CCCS2(=O)=O)cc1NS(=O)(=O)c1ccc(OC)c(OC)c1
→ 1.8	.
N#CC1=C2N=C(N)c3ccccc3N2C2=C(C(=O)CCC2)C1c1ccc(Br)cc1 (configuration not stated)
→ -5.1	2.8
CC(C)(C)NS(=O)(=O)c1cn(CC(=O)NC2CCCCC2)cc1S(=O)(=O)NC(C)(C)C
→ 2.1	.
Cc1ccc2nc(-c3cccc(S(=O)(=O)N4CCCC4)c3)cn2c1
→ 1.1	-2
CCOC(=O)c1nc(N(Cc2ccccc2)C(C)C)c2ccccc2n1
→ 1.8	.
O=C(Nc1sc2c(c1C(=O)NCc1ccco1)CCC2)c1ccc2c(c1)OCCO2
→ -0.3	.

Later entries.
Below each SMILES – TAR Tat displ	CDC25B-CDK2 inh
COc1ccc(-c2onc(C)c2C)cc1S(=O)(=O)Nc1cc(C)nc2ccccc12
→ 2.1	.
CC1CCCCC1NC(=O)Cn1ncn2cccc2c1=O (configuration not stated)
→ -1	-1.1
Cc1cccc(-n2c(-c3ccccc3)cn3c4c(=O)[nH]c(=O)n(C)c4nc23)c1
→ 1.3	-1.1
O=C(Nc1ccc(Cl)cc1)N1CCCC1c1cccs1 (configuration not stated)
→ 0.17	-1.7
CC1CCC(NC(=O)c2cc3c(s2)CS(=O)(=O)C3)CC1 (configuration not stated)
→ -0.67	-0.97
O=C(Nc1ccc2c(c1)CCC2)c1cnn2c1NC(c1ccco1)CC2C(F)(F)F (configuration not stated)
→ -9	.
Cc1ccccc1OCc1nc(C#N)c(NCCCn2ccnc2)o1
→ 2.8	0.31
COC(=O)c1ccc2c(=O)n(CCCC(=O)O)c(=O)[nH]c2c1
→ 0.15	.
CCCc1cc(C(=O)Nc2ccc3c(c2)OCO3)no1
→ 0.81	-1.3
CCOCCCN(Cc1ccco1)C(=O)c1noc2c1COc1ccccc1-2
→ 0.88	0.86
O=S(=O)(Nc1cccc(Br)c1)c1cccs1
→ 0.05	0.27
COc1cccc(-c2nc(SCCOCCOc3cccc(C)c3)n3[nH]c(=O)cc3n2)c1
→ 2.1	.
CCc1ccc(C(=O)NNc2ccc(Cl)cc2)cc1
→ .	-1.7
CCCCNC(=O)c1cc2c(=O)n3ccccc3nc2n1C
→ 5*	.
CCNc1oc(/C=C/c2cccs2)nc1C#N
→ -0.71	-3.4
CCOC(=O)c1noc2nc(C)nc(N3CCN(c4ccccn4)CC3)c12
→ -0.51	.
CCS(=O)(=O)N1CCCc2ccc(NS(=O)(=O)c3c(C)cc(C)cc3C)cc21
→ -0.11	.
Cc1ccc(-c2noc(CN(C(=O)c3ccc(Br)cc3)C(C)C)n2)cc1
→ -0.16	-1.9
O=C(NNc1nc(-c2cccs2)cs1)c1ccc(Cl)cc1
→ .	-1.2
CSc1nnc(NC(=O)c2cc(=O)c3cc(C)cc(C)c3o2)s1
→ -0.28	-2
Cn1c(Sc2nc3ccc([N+](=O)[O-])cc3s2)nc2sc3c(c2c1=O)CCCC3
→ .	-2.3
CC(=O)Oc1ccc(-c2nc3ccc(Cl)cc3c(=O)o2)cc1
→ .	-0.7
COC(=O)/C=C(/Nc1ccc(Cl)cc1)C(=O)OC
→ .	-1.1
CCc1[nH]c(=O)c(C#N)c2c1CCCC2
→ 0.18	0.35
C1CCc2c(c(N3CCOCC3)nc3sc4c(N5CCNCC5)nnnc4c23)C1
→ 0.78	0.8
Brc1ccc(-c2nnc3sc(CN4CCCCCC4)cn23)cc1
→ .	-2.3
N#Cc1c(N)sc2c1CCCCC2
→ 0.66	-1.5
Nc1nc(N2CCCCC2)nc(N2CCOCC2)c1[N+](=O)[O-]
→ 0.82	.
CCSc1nc2c(c(=O)n(C)c(=O)n2C)n1Cc1ccc(Cl)cc1
→ 0.64	-0.63
CNc1nc(C)nc(-c2ccccc2O)n1
→ 1.5	0.4
COc1cc(C2c3c(oc4ccc(F)cc4c3=O)C(=O)N2CCCN2CCOCC2)ccc1O (configuration not stated)
→ -0.67	-0.99
N#Cc1nc(/C=C/c2ccccc2Cl)oc1N1CCN(C(=O)c2ccco2)CC1
→ 0.12	-2.6
Cc1ccccc1OCCn1c(=S)[nH]c2c(N)ncnc21
→ .	-1.5
Cc1ccc(N(C)S(=O)(=O)c2cc(Br)cnc2N)cc1
→ 1.4	-2.1
Cc1cc(C)c(S(=O)(=O)NCc2cn3c(C)csc3n2)c(C)c1
→ -0.7	-0.73
COCCN1C(=O)c2cc3sccc3n2CC1(C)C(=O)NC1CCC(C)CC1 (configuration not stated)
→ 1.9	-1.3
OCc1c(F)c(F)c(F)c(F)c1F
→ .	-0.57
COC(=O)c1sccc1NC(=O)Cc1noc2ccccc12
→ 1.7	-1.9
COc1cc(OC)cc(-n2nnc(-c3nc(-c4ccc(F)cc4)no3)c2N)c1
→ 0.47	.
Cc1cc(-c2ccc(S(=O)(=O)N3CCc4ccccc43)s2)on1
→ -0.24	.
Cc1ccc(NC(=O)NC(c2nc3cccnc3n2C(C)C)C(C)C)cc1 (configuration not stated)
→ 0.96	.
O=C(Oc1cccc(Br)c1)c1ccco1
→ 1.7	-0.6
CSc1ccc(CCNC(=O)c2oc3ccc4c(c3c2C)C(O)CC(C)(C)O4)cc1 (configuration not stated)
→ 0.66	.
Cc1ccc(CN2CCC(CNS(=O)(=O)c3ccc(-c4ccc(=O)[nH]n4)s3)C2)cc1 (configuration not stated)
→ 0.42	.
CC(C)N(C)C1CCN(S(=O)(=O)c2ccc3c(c2)CCCC(=O)N3)CC1
→ -6.8	.

Five entries already listed, sorted by formula weight, rising:
Below each SMILES – TAR Tat displ	CDC25B-CDK2 inh
CCc1[nH]c(=O)c(C#N)c2c1CCCC2
→ 0.18	0.35
O=C(NNc1nc(-c2cccs2)cs1)c1ccc(Cl)cc1
→ .	-1.2
Cc1ccc2nc3c(cc(C#N)c(=O)n3Cc3ccccc3)c(=O)n2c1
→ 1.3	-0.93
Cc1cc(C)c(S(=O)(=O)NCc2cn3c(C)csc3n2)c(C)c1
→ -0.7	-0.73
COc1cc(-c2oc3cc(O)cc(O)c3c(=O)c2O[C@@H]2O[C@H](CO)[C@@H](O)[C@H](O)[C@H]2O)ccc1O
→ 0.39	.

New compounds follow
Below each SMILES – TAR Tat displ	CDC25B-CDK2 inh
CCc1ccc(-c2csc(NC3OC(=O)c4ccccc43)n2)cc1 (configuration not stated)
→ -0.08	0.32
NNC(=O)c1cc(OCC(F)(F)F)nc(OCC(F)(F)F)c1
→ .	-0.89
O=C(O)C(Cc1ccccc1)N1C(=O)CSC1=S (configuration not stated)
→ 0.27	-1.4
N=C(N)c1ccc(OCCCCCOc2ccc(C(=N)N)cc2)cc1
→ 1.9	.
Cc1cc(C)c2c(CC(=O)Nc3sc4c(c3C(=O)NCc3cccnc3)CCC4)coc2c1
→ -0.34	-1.2
O=C(NCCC1=CCCCC1)c1nnc(-c2ccncc2)o1
→ 0.4	2.6
CCOC(=O)N1CCN(c2c(NC3CCCCC3)c(=O)c2=O)CC1
→ 0.45	-0.44
COc1cc(C2SCC(=O)N2Cc2ccccc2)ccc1O (configuration not stated)
→ -0.16	-0.42
C=CCN1C(=O)c2[nH]nc(-c3c(C)cc(C)cc3O)c2C1c1ccc(OC)cc1 (configuration not stated)
→ -0.06	-1.3
COc1ccc(N(C)c2c(-c3ccc(C)c(C)c3)c(=O)c2=O)c(OC)c1
→ 1.4	.
Cc1ccc(C2=[N+]([O-])C3(CCCCC/C3=N\O)N(O)C2(C)C)o1 (configuration not stated)
→ .	-3.5
O=C(O)CSc1nc2ccccc2c(=O)n1Cc1ccco1
→ 0.69	-1.2
CN(C(=O)CC(=O)Nc1ccc2nc3n(c(=O)c2c1)CCCCC3)c1ccccc1
→ -1.1	-0.48
COc1ccc(C2NCC3(C)CN2CC(C)C3O)cc1OC (configuration not stated)
→ .	-2.4

Whole records, quoted from the list. Order of values: TAR Tat displ, CDC25B-CDK2 inh
Cc1cc(C)c2c(CC(=O)Nc3sc4c(c3C(=O)NCc3cccnc3)CCC4)coc2c1 reads -0.34, -1.2
COc1cc(C2SCC(=O)N2Cc2ccccc2)ccc1O (configuration not stated) reads -0.16, -0.42
NNC(=O)c1cc(OCC(F)(F)F)nc(OCC(F)(F)F)c1 reads ., -0.89
